# TSHR ag = qHTS Assay for Agonists of the Thyroid Stimulating Hormone Receptor; HEK293-CNG-TSHR cells (CNG channel as cAMP sensor), membrane potential dye, cAMP; Potency, µM (doses to about 57.1 µM), for the others: at the highest dose activation, usual class: activators; hit rate 0.48% among 73,000; active = well fitted activation curve of enough size with the parental cells flat; inconclusive = any curve in the parental cells; inactive = parental cells flat and receptor cells flat or falling; note: potency is the fitted concentration of half-maximal effect; % of control where 0% means no effect; weak receptor curves with flat parental cells got no call and are not listed
# Target sequence (P16473 whole entry, looked up): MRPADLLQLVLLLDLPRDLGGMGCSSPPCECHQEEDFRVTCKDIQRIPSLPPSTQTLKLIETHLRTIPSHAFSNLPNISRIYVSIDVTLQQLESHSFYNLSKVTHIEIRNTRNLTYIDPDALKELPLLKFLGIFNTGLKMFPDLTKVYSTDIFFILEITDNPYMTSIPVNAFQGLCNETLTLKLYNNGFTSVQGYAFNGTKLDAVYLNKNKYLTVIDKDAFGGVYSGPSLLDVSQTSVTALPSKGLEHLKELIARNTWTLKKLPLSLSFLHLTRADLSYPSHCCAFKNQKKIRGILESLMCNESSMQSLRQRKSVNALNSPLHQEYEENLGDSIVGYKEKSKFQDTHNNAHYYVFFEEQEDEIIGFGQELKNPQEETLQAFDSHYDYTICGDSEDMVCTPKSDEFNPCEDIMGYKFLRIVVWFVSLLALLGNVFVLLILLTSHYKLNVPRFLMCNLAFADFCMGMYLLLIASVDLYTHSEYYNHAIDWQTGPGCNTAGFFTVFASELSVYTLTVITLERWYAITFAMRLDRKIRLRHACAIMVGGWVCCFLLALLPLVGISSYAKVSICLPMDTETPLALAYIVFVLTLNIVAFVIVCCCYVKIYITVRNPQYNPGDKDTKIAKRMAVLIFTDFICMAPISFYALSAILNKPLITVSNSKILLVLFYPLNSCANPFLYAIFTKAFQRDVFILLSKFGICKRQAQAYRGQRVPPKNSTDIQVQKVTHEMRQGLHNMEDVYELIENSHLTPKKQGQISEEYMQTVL
#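 HEK 293 cells stably expressing TSHR and a cAMP-gated CNG channel; parental CNG-only cells as counterscreen. Cells preloaded 60 min with membrane potential dye plus 100 uM RO 20-1724, then compound 30 min; fluorescence read at 590 nm.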
# A488 fluor = qHTS Assay for Spectroscopic Profiling in A488 Spectral Region; compound autofluorescence, A488 spectral region, dye equivalency; active compounds read high; max dye equivalency, M; hit rate 0.1% among 59,000; AID 591, 2007; active = above 10 nM dye equivalent; inconclusive = 1 to 10 nM; inactive = 1 nM or less; about half of its hits are not listed in these tables;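 note: highest value over a series up to 38 µM; compound alone in buffer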
#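 Intrinsic compound fluorescence is measured in 100 mM Tris buffer at pH 8.0 following 15 min incubation at room temperature. Intensities at 480 nm excitation/540 nm emission are calibrated to an on-plate A488 concentration series, giving dye-equivalent concentrations.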
# A647 fluor = qHTS Assay for Spectroscopic Profiling in A647 Spectral Region. Compound fluorescence, A647 channel (570/671 nm), Tris buffer. max dye-equivalent concentration, M. 59,000 tested, under 10 active; active means above 1 µM dye equivalent; inconclusive means 0.1 to 1 µM; inactive means 0.1 µM or less;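 note: values scaled relative to a standard on each plate; highest value over a series up to 38 µM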
#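 Fluorescence read (570 nm ex, 671 nm em) after 15 min RT incubation of compounds in 100 mM Tris buffer, pH 8.0; values expressed as dye-equivalent concentration against a six-point A647 standard series on each plate.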
# AID923 = qHTS Assay for Allosteric/Competitive Inhibitors of Caspase-1: Spectroscopic Profiling in AFC Spectral Region; hit rate 1.1% among 75,000; AID 923, 2007; Potency, µM (top dose mostly 57.5 µM), inactives show at the top dose fluorescence increase, hits mostly activators; compound fluorescence, AFC spectral region (405/520 nm); almost no hit is shown here; active = well fitted activation curve with a large enough effect; inconclusive = small, poorly fitted or top-dose-only effect;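 note: potency is the fitted concentration of half-maximal effect; 0% is about no effect; scaled to a free AFC standard on each plate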
#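 Titrations up to 57 uM read every 20 sec for 3 min (405/520 nm) with 50 nM caspase 1 and 5 uM Ac-WEHD-AFC, pH 7.5 HEPES buffer. Fluorescence-vs-time intercept gave baseline, scaled against on-plate AFC standard.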
# Resorufin autofl = qHTS Assay for Spectroscopic Profiling in Resorufin Spectral Region | Compound fluorescence, resorufin region 547/598 nm, buffer; active compounds read high | max dye-equivalent concentration, M | hit rate 0.04% among 59,000; active = above 10 nM dye equivalent; inconclusive = 1 to 10 nM; inactive = 1 nM or less; a few of its hits are not listed in these tables; note: highest value over a series up to 38 µM
#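 Intrinsic fluorescence profiled in the resorufin window (ex 547 nm, em 598 nm) after 15 min at room temperature in pH 8.0 Tris buffer (100 mM); responses normalized against a six-point resorufin standard series as dye-equivalent concentration.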
# * marks the source's active call; other numbers are inactive results; i = inactive; ? = inconclusive; · = not tested or not shown; & = joins results of further samples; [ ] = another dose, or the depositor's remark.
# Every second line gives: AID923 | Resorufin autofl | A647 fluor | TSHR ag | A488 fluor
COc1ccc(/C=N/NC(=O)c2cc(-c3ccc(Cl)cc3)n[nH]2)cc1OC
  1.8% | · | · | 15% | ·
CCC(=O)Nc1cccc(Br)c1
  -1.5% | · | · | -7% | ·
O=C(NCc1ccccc1)C1CCCN(S(=O)(=O)c2cccnc2)C1 (configuration not stated)
  -0.3% | i | 1e-09 | -1% | i
O=C1NCCN1C(=O)c1ccccc1F
  -1.0% | i | 2.7e-08 | -2% | i
CCOC(=O)c1cc(-c2ccc(Cl)s2)nc2c1c(C)nn2C
  6.2% | i | 9.5e-09 | 8% | i
CCCN1C(=O)SC(CC(=O)Nc2ccc(Br)cc2)C1=O (configuration not stated)
  -1.5% | i | 5.9e-09 | -21% | i
CN(Cc1ccco1)c1ccnc(-c2ccoc2)n1
  6.1% | i | 3.5e-09 | -1% | i
CN1C(=O)NC(NC(=O)c2ccncc2)(C(F)(F)F)C1=O (configuration not stated)
  2.2% | i | 1e-09 | ? | i
O=c1cc(-c2cccc(O)c2O)oc2ccccc12
  -4.7% | i | 1e-09 | 27% | i
CC1CCCCC1n1c(=S)[nH]c2ccccc2c1=O (configuration not stated)
  -0.3% | i | 2.4e-09 | 24% | i
CCCS(=O)(=O)N1CCC(C(=O)NCc2cccnc2)CC1
  -1.8% | i | 2.6e-08 | 2% | i
COc1ccc(-n2ncc3c(=O)n(CC(=O)N4CCCc5ccccc54)cnc32)cc1
  -1.1% | i | 1.1e-08 | 25% | i
O=S(=O)(NCCOCC(F)(F)F)c1ccc2oc3ccccc3c2c1
  -0.5% | i | 4.1e-09 | 15%[11.4 µM] | i
c1ccc(-n2nnnc2Oc2ccc(-c3nnco3)cc2)cc1
  -1.8% | i | 1e-09 | 3% | i
COc1ccccc1OCCC(=O)OCC(=O)Nc1ncc(Cl)cc1Cl
  0.2% | i | 4.5e-08 | 0% | i
COC(=O)[C@H]1C[C@@H]1[C@H](NC(=O)c1cnccn1)c1ccccc1
  0.4% | · | · | 5% | ·
Cc1cc(=O)[nH]c(SCc2cccc(Br)c2)n1
  -1.3% | i | 3.8e-08 | · | i
O=C(NC1CCC(NC(=O)C2CCCO2)CC1)C1CCCO1 (configuration not stated)
  -0.1% | i | 1.7e-08 | 3% | i
COc1ccc(N2CC(C(=O)Nc3ccccc3C(=O)NCc3ccco3)CC2=O)cc1 (configuration not stated)
  -0.5% | i | 2.9e-08 | 4% | i
Cc1cc(=O)oc(C)c1C(=O)NCCC1=CCCCC1
  · | i | 2.8e-08 | · | i
COc1ccc(-c2csc(N(CCCN3CCOCC3)C(=O)c3ccco3)n2)cc1
  -2.2% | i | 5.4e-08 | 15% | i
CCCCn1c(SCC(=O)c2ccccc2)nc2c1c(=O)[nH]c(=O)n2C
  1.3% | i | 5.8e-09 | 2% | i
CCOc1ccc2nc(NS(=O)(=O)c3ccc(NC(C)=O)cc3)sc2c1
  0.0% | i | 3.6e-08 | -6% | i
COc1ccc(N2CSC3=C(C#N)C(c4cccc(OC)c4OC)CC(=O)N3C2)cc1 (configuration not stated)
  3.2% | · | · | ? | ·
Cc1nc(C)n(CC(O)COc2ccc(C(=O)c3ccccc3)cc2)n1 (configuration not stated)
  1.0% | i | 4.6e-09 | -10% | i
CCn1c(SCC(=O)N2CCCC2)nc2ccccc2c1=O
  -0.4% | i | 1.3e-08 | ? | i
COc1ccc(S(=O)(=O)Nc2ccccn2)c(C)c1C
  -2.0% | i | 2.4e-09 | -9% | i
CCc1nn(C(C)C(=O)NC(C)CCc2ccco2)c(=O)c2cc3occc3n12 (configuration not stated)
  -2.3% | · | · | ? | ·
O=C1N(CC(=O)N2CCc3ccccc32)CCN1Cc1ccccc1Cl
  -0.6% | i | 2.4e-09 | 10% | i
COc1cc(C(=O)N2CCC(C(=O)Nc3cccc(C(C)=O)c3)CC2)cc(OC)c1OC
  0.5% | · | · | ? | ·
Cc1ccccc1Cn1cnc2c(cnn2C(C)(C)C)c1=O
  0.0% | i | 7.4e-09 | ? | i
CC(C)Cn1c(SCC(=O)c2ccc(Cl)s2)nnc1-c1ccco1
  0.8% | i | 1e-09 | ? | i
CN1CCN(C(=O)c2ccc(C(C)(C)C)cc2)CC1
  0.8% | · | · | 7% | ·
CCOC(=O)c1ccc(NC(=O)Cn2nnc(-c3ccc(F)cc3)n2)cc1
  -0.1% | i | 1e-09 | 4%[11.4 µM] | i
COCC(C)NC(=O)COc1ccc(Cl)cc1Cl (configuration not stated)
  -0.3% | i | 1e-09 | 2% | i
Cc1ccc(CSc2nc3c(c(=O)[nH]2)C(c2ccncc2)C2=C(CCCC2=O)N3)cc1 (configuration not stated)
  1.9% | i | 7.8e-09 | 14% | i
CC(=O)c1nn(-c2cccc(Cl)c2)cc1C(=O)c1ccco1
  -0.5% | i | 1e-09 | 13% | i
Cc1c(C(=O)N2CCc3ccccc32)oc2c1C(=O)CC(C)(C)C2
  -1.6% | i | 2.4e-08 | 16% | i
Cc1noc(C)c1S(=O)(=O)N1CCCC(C(=O)NCC2CCCO2)C1 (configuration not stated)
  0.5% | i | 5.4e-09 | 0% | i
O=C(Nc1ccc(Br)cc1F)c1ccncc1
  -0.1% | · | · | -2%[11.4 µM] | ·
CC(Sc1cccc(C(F)(F)F)c1)C(=O)NC(N)=O (configuration not stated)
  -0.4% | i | 1e-09 | 2%[11.4 µM] | i
CCOC(=O)CCCSc1nc2sc(C)c(C)c2c(=O)[nH]1
  -1.9% | · | · | 19% | ·
O=C(CSc1nnc(C2CCCCC2)n1-c1ccccc1)NCc1ccco1
  0.6% | i | 1e-09 | -1% | i
CCN(Cc1ccncc1)S(=O)(=O)c1ccc(C(C)=O)cc1
  -0.6% | i | 9.3e-09 | 14% | i
N#Cc1cccc(-c2cc(-n3ccnc3)ncn2)c1
  -3.1% | i | 4.3e-08 | 2% | i

# Results in A647 fluor and TSHR ag, for some of the entries so far:
mol	A647 fluor	TSHR ag
COCC(C)NC(=O)COc1ccc(Cl)cc1Cl (configuration not stated)	1e-09	2%
Cc1ccccc1Cn1cnc2c(cnn2C(C)(C)C)c1=O	7.4e-09	?

# (list continues)
# Every second line gives: AID923 | Resorufin autofl | A647 fluor | TSHR ag | A488 fluor
CN(CC(=O)N1CCCc2c1c(=O)oc1ccc(O)cc21)Cc1ccccc1
  0.9% | i | 2.4e-09 | 9% | i
Cc1ccc(N2CC(C(=O)N3CCN(c4ccccc4)CC3)CC2=O)cc1 (configuration not stated)
  0.8% | i | 1e-09 | · | i
COc1cc2c(cc1NC(=O)c1ccc3c(c1)OCO3)oc1ccccc12
  -2.3% | i | 4.7e-09 | · | i
O=C(COc1ccccc1)NCCSCc1ccco1
  0.5% | i | 5.3e-09 | -1% | i
CC1(C)OC[C@@H]2O[C@H](n3cnc4c(N)nc(Cl)nc43)[C@@H](OS(C)(=O)=O)[C@@H]2O1
  0.2%[11.5 µM] | i | 1e-09 | 0%[11.4 µM] | i
COCC(=O)N1CCC2(CCCN(c3ccc(-c4ccccc4)cc3)C2)CC1
  2.3% | i | 3.7e-09 | -7% | i
Cc1cc(NC(=O)COc2cccc3cccnc23)no1
  5.0% | i | 1e-09 | -16% | i
CCC(c1nc2ccccc2c(=O)n1-c1cccnc1)N1C(=O)c2ccccc2C1=O (configuration not stated)
  -2.0% | i | 6.6e-09 | 4% | i
O=C(NCC(c1cccnc1)N1CCN(c2ccccc2)CC1)c1ccc2c(c1)OCO2 (configuration not stated)
  0.8% | i | 3.7e-08 | ? | i
CC1(C)CC(=O)c2cnc(NCc3ccco3)nc2C1
  -2.2% | i | 1e-09 | 2% | i
Cn1c(=O)[nH]c(=O)c2c1nc(Br)n2CCOc1ccccc1
  -0.2% | i | 1e-09 | -1% | i
c1ccc(Cc2nnc3sc(-c4ccc5c(c4)OCO5)nn23)cc1
  1.5% | i | 1e-09 | 50% | i
Nc1ccc(-c2ccc(N)c(O)c2)cc1O
  2.5% | · | · | -1% | ·
Cc1nc2c3ccccc3[nH]c(=O)n2n1
  1.4% | i | 1.1e-08 | -7% | i
COc1ccc(N(C(C)C(=O)NC2CCCCCC2)S(C)(=O)=O)cc1 (configuration not stated)
  -2.4% | i | 2.8e-09 | · | i

# Exported as labelled records: part of the list above
c1ccc(Cc2nnc3sc(-c4ccc5c(c4)OCO5)nn23)cc1
  AID923: 1.5%
  Resorufin autofl: i
  A647 fluor: 1e-09
  TSHR ag: 50%
  A488 fluor: i

Nc1ccc(-c2ccc(N)c(O)c2)cc1O
  AID923: 2.5%
  Resorufin autofl: ·
  A647 fluor: ·
  TSHR ag: -1%
  A488 fluor: ·

Cc1nc2c3ccccc3[nH]c(=O)n2n1
  AID923: 1.4%
  Resorufin autofl: i
  A647 fluor: 1.1e-08
  TSHR ag: -7%
  A488 fluor: i

COc1ccc(N(C(C)C(=O)NC2CCCCCC2)S(C)(=O)=O)cc1 (configuration not stated)
  AID923: -2.4%
  Resorufin autofl: i
  A647 fluor: 2.8e-09
  TSHR ag: ·
  A488 fluor: i

# Following part:
# Every second line gives: AID923 | Resorufin autofl | A647 fluor | TSHR ag | A488 fluor
CCN(CCNC(=O)C1CCN(Cc2nc(-c3ccc(Cl)cc3)oc2C)CC1)c1ccccc1
  0.6% | i | 2e-08 | ? | i
CCCCS(=O)(=O)/C=C\C1C2C=CC(C2)C1S(=O)(=O)CCCC (configuration not stated)
  0.3% | i | 4.6e-09 | 29% | i
Cc1nc2ccccc2c(=O)n1/N=C/c1c(O)ccc2oc3c(c12)CCCC3
  -0.6% | i | 6.9e-09 | ? | i
CC(=O)Nc1ccc(S(=O)(=O)NC(C(=O)O)C2=CCC=CC2)cc1 (configuration not stated)
  -0.2% | i | 1.1e-08 | -4% | i
O=C(C1CC(c2ccc(F)cc2)=NO1)N1CCCCC1 (configuration not stated)
  14% | i | 1e-09 | 25% | i
CN(C)CCCCSC(=N)N
  1.1%&-0.6% | i | 1e-09 | -3%&5% | i
Cc1ccc(S(=O)(=O)N(C)CCCC(=O)n2nc(C)cc2C)cc1
  -0.8% | i | 1e-09 | 22% | i
CCn1c(CNC(=O)c2ccc3c(c2)OCO3)nnc1SCC(=O)Nc1cc(C)ccc1OC
  -0.7% | i | 3.5e-09 | 24% | i
O=C1c2ccccc2C(=O)C1(O)O
  12% | · | · | ? | ·
COc1ccc(C(=O)N2CCC3(CCN(Cc4ccccc4OC)CC3)CC2)cc1
  1.7% | i | 1e-09 | 1% | i
CNc1nc(C)c(C#N)c(-c2ccccc2)c1C(C)=O
  0.6% | i | 1e-08 | 26% | i
CN(C)c1nc(C(=O)OCCO)nc(N(C)C)n1
  -0.9% | i | 1e-09 | -2% | i
COc1ccc(Cn2c(CCC(=O)O)nc3cccnc32)cc1
  -1.0% | i | 1.4e-08 | -1% | i
CCc1ccc(-c2cn(-c3nc(C)cc(C)n3)c(=N)o2)cc1
  -0.7% | i | 2e-09 | ? | i
O=c1[nH]c(C2CCCN(S(=O)(=O)c3ccccc3)C2)nc2c1nnn2Cc1ccccc1 (configuration not stated)
  -1.4% | i | 2.4e-09 | 26% | i
CN(Cc1ccccc1)S(=O)(=O)c1ccc(NS(C)(=O)=O)cc1
  1.0% | i | 1.5e-08 | 1% | i
CC1(C)NC(=O)N(CCOc2cccc(Oc3ccccc3)c2)C1=O
  -1.9% | i | 2.3e-08 | · | i
Cc1onc(-c2c(F)cccc2Cl)c1C(=O)Nc1c(C)n(C)n(-c2ccccc2)c1=O
  0.0% | · | · | 0% | ·
O=c1c(-c2ccc(F)c(F)c2)nc2cncnc2n1-c1ccccc1
  11% | i | 2.4e-09 | -11% | i
CCCCCCCCCC(=O)N[C@@H](CN1CCOCC1)[C@@H](O)c1ccccc1
  -2.4% | i | 2.6e-09 | 11% | i

# Assay outcomes (PubChem BioAssay)

# Not all compounds are listed. The share of hits here may be higher or lower than overall.
